Screening results deposited in PubChem BioAssay by National Center for Advancing Translational Sciences (NCATS).
nsP2pro primary = Primary qHTS for inhibitors of NSP2Pro chikungunya virus (CHIKV); Potency, µM (series often up to 24.9 µM), without a hit: at the top dose activity change, negative = inhibition, hits mostly inhibitors; FRET peptide cleavage, nsP2pro, fluorescence 1 h; Polyprotein P1234 (Chikungunya virus (strain S27-African prototype)), Q8JUX6; 31,000 tested, 1.1% active; active means well fitted inhibition curve with a large enough effect; inconclusive means small, poorly fitted or top-dose-only effect; inactive means no such curve, though single readings can be large or run the other way; further: nearly all actives have a fitted effect of over 60% in size; a reference inhibitor and vehicle were the controls
Target sequence (Q8JUX6 whole entry, looked up): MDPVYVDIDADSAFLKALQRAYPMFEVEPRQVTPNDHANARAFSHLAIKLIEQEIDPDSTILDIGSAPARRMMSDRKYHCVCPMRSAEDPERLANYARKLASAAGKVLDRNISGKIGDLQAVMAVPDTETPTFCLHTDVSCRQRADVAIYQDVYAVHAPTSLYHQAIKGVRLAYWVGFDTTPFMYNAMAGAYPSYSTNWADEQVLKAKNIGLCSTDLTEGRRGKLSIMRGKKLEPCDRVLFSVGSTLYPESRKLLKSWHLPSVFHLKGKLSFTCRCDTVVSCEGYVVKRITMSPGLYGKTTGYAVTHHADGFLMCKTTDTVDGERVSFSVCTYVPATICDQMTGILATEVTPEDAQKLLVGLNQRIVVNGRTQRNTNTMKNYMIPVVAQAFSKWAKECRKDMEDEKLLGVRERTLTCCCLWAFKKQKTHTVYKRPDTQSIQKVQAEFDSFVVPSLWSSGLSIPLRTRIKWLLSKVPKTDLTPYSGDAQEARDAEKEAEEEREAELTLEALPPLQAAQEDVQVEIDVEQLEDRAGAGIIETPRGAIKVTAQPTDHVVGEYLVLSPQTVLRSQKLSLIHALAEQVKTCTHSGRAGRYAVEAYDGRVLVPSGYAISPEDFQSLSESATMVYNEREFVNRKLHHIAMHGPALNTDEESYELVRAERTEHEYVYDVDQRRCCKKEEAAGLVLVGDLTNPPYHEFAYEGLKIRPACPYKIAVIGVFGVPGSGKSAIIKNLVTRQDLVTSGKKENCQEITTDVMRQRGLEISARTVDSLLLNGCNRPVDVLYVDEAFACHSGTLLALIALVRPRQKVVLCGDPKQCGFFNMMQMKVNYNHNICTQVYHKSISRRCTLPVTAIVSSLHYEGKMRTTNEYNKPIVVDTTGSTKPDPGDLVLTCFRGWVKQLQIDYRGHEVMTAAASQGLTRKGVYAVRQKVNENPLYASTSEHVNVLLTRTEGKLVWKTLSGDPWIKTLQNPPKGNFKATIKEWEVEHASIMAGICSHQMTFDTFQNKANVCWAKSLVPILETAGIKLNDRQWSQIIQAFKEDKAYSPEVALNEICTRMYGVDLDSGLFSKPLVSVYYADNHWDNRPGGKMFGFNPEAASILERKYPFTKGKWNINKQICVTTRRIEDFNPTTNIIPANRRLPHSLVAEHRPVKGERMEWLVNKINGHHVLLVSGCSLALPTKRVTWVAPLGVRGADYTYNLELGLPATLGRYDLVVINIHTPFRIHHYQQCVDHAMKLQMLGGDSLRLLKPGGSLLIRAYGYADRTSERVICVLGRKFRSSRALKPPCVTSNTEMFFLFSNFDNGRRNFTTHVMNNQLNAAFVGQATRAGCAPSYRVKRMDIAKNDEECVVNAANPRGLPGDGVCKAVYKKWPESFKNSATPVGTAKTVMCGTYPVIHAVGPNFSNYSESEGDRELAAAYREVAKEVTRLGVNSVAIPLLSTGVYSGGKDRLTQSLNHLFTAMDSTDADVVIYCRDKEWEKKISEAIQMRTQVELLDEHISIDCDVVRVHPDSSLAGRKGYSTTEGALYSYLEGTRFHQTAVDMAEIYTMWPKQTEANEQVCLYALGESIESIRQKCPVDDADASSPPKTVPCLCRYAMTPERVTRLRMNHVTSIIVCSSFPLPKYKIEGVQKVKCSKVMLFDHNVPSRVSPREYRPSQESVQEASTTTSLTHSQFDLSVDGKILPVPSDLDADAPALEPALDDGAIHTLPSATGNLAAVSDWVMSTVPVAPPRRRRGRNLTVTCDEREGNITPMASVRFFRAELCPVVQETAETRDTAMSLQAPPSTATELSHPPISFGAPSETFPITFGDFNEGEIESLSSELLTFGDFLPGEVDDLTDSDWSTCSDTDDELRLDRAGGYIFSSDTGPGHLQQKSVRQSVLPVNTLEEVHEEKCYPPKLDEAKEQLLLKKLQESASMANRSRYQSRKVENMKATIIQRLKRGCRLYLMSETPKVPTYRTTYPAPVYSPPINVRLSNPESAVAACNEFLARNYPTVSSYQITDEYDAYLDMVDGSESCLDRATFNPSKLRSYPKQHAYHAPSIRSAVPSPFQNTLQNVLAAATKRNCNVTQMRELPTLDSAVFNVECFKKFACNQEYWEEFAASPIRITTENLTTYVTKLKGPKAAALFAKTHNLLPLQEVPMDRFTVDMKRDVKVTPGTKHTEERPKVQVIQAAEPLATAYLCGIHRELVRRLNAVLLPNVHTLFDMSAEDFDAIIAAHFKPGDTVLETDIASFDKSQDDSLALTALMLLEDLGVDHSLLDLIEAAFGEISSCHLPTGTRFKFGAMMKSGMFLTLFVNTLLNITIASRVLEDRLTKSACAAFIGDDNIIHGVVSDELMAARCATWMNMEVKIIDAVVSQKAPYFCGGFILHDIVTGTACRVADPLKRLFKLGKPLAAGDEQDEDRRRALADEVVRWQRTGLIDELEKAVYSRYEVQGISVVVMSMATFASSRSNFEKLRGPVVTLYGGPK
* = called active by the depositor; i = inactive; ? = inconclusive; & = joins results of further samples; [ ] = another dose, or the depositor's remark. On the % scale 0 is the no-effect control and ±100 the full control effect; potency means the concentration at half of the fitted maximal effect. This is a subset; count on the stated rates, not on these rows.

SMILES	nsP2pro primary
Cc1cc(N[S+](=O)([O-])c2ccc(NC(=O)Cc3cccc(Cl)c3Cl)cc2)no1	3%
COCCN1CCCC1c1nc(C2CN(C(=O)c3ncccc3C)C2)no1 (stereo not drawn)	-11%
Cn1cccc1C(=O)N[C@H]1C[C@@H]2C(=O)N[C@H]3CCN(C(=O)Cc4cccs4)[C@@H]3C(=O)N2C1	i
NC(=O)CN1CCC(C(=O)N2CCCC(CO)(CC3CC3)C2)CC1 (stereo not drawn)	i
Cn1cc(CN2CC3(COCC(=O)N(Cc4cccc(OC(F)(F)F)c4)C3)C2)cn1	3%[39.2 µM]
CCOC(=O)CCN(Cc1ccccc1)S(=O)(=O)c1csc(C(N)=O)c1	-10%
O=C(NCc1ccc(S(=O)(=O)c2cccc(C(F)(F)F)c2)cc1)c1cnc2[nH]ncc2c1	1%
Cc1noc(C)c1S(=O)(=O)N1CCC(Cc2nc(-c3cccnc3)n[nH]2)C1 (stereo not drawn)	i
Cc1cccc(N(CC(=O)NCCSCc2ccc(Cl)cc2)S(C)(=O)=O)c1C	-37%
CN(C)c1ccc(C(=C2C=CC(=[N+](C)C)C=C2)c2c(O)c(S(=O)(=O)[O-])cc3cc(S(=O)(=O)O)ccc23)cc1	23%
O=S(=O)(c1ccccc1)c1nnn2c1nc(N1CCCCC1)c1ccccc12	0%
Cc1ccc(-n2nc(C(=O)N(C)Cc3ccccc3)c3c4ccccc4n(C)c3c2=O)cc1	-23%
COc1ccsc1CNCC[C@@]1(c2ccccn2)CCOC2(CCCC2)C1	2%&1%
NS(=O)(=O)c1ccc2nc(NC(=O)COc3ccc(Cl)cc3Cl)sc2c1	-9%
COCCn1nc2n(c1=O)CCN(Cc1ccc(Br)o1)CC2	-17%
O=C(Nc1sc2c(c1C(=O)N1CCCCC1)CCCC2)c1ccccc1Cl	-16%
CCC(C)C1NC(=O)C2CCCN2C(=O)C(CC(C)C(=O)O)OC(=O)CCNC(=O)C(C)N(C)C(=O)C(C(C)C)N(C)C1=O (stereo not drawn)	?
COc1ccc2cc(OCC3(C(=O)O)CN(C(=O)c4ccc(F)cc4)C3)ccc2c1	?
c1coc(-c2nc3ccccn3c2Nc2ccc3c(c2)OCCO3)c1	-33%
CCCCNC(=O)C1CCc2sc(C(=O)N3CCCCC3)cc2C1 (stereo not drawn)	2%
COc1ccc(C(=O)N2CC[C@@H](CC(=O)O)[C@@H](CCN3CCC[C@H]3C(N)=O)C2)cc1	4%[39.2 µM]
Cc1cccc(-n2ncc(C(=O)NCc3ccc4c(c3)OCO4)c2C2CCN(C(=O)OC(C)(C)C)CC2)c1	-7%
C[C@@H]1CC[C@]2(C(=O)O[C@@H]3O[C@H](CO[C@@H]4O[C@H](CO)[C@@H](O)[C@H](O)[C@H]4O)[C@@H](O)[C@H](O)[C@H]3O)CC[C@]3(C)C(=CCC4[C@@]5(C)CC[C@H](O)[C@](C)(C(=O)O)C5CC[C@]43C)[C@@H]2[C@]1(C)O (stereo partly drawn)	55%[activator][5.1 µM]
COCCn1cnnc1CCNC(=O)c1oc2cc(OC)ccc2c1C	3%
O=[S+]([O-])(NCC1CN(Cc2ccc3[nH]ccc3c2)CC12CN(c1ccccc1)C2)c1ccccc1 (stereo not drawn)	4%
CN(CCCOc1ccc(Cc2ccccc2)cc1)CCC(=O)O	-7%
CCSc1nc2ccccc2c(OCc2cc(C(=O)OC)ccc2OC)c1C(=O)OC	-9%
C=CCNC(=O)N[C@H]1CO[C@H]2[C@@H]1OC[C@@H]2Nc1nccc(C(C)(C)C)n1	2%[39.2 µM]
CCOC(=O)c1cc(S(=O)(=O)N2CCN(c3cccc(C)c3)C(C)C2)[nH]n1 (stereo not drawn)	-27%
CCN(CC)S(=O)(=O)c1ccc(C(=O)N=c2sc3cccc(OC)c3n2C)cc1	-18%
COC(=O)C1=CO[C@@H](O[C@@H]2O[C@H](CO)[C@@H](O)[C@H](O)[C@H]2O)[C@@H]2[C@@H](C(=O)OC)[C@@H](O)C(O)[C@H]12 (stereo partly drawn)	0%[10 µM]
CCOc1ccc(CCNC(=O)c2cn(CC)c3ccc(S(=O)(=O)N4CCc5ccccc5C4)cc3c2=O)cc1OCC	-10%
COc1cccc(N2C(=O)NC(=NC3CCCC3)C23CCN(Cc2ccccc2)C3)c1 (stereo not drawn)	-13%
COC(=O)CC1Oc2ccc(F)cc2-n2cc(-c3ccc(Cl)cc3)nc21 (stereo not drawn)	-20%
CCN(CC)S(=O)(=O)c1ccc2c(c1)nc(CN(C)C(=O)Nc1ccc(C)c(F)c1)n2C	-10%
CN(Cc1ccc(Oc2ncccn2)cc1)CC1CCN(CCc2ccc(F)cc2)CC1	-7%
C#CC(C)(CC)NC(=O)Cn1nnc(-c2ccc(OCc3ccccc3C)cc2)n1 (stereo not drawn)	-13%
COc1cc(NC(=O)Nc2cccc(-c3noc(C)n3)c2)cc(OC)c1OC	-18%
O=C1c2ccccc2C(=O)N1c1ccc(Cl)cc1	-4%
COc1ccc2c(c1)c(CN1C[C@@H](CO)[C@H](c3nc(C)no3)C1)cn2C	-3%
COc1ccc(CC(=O)N2CCCN(c3cc(-c4ccccc4)[nH]n3)CC2)cc1	i
O=C(CN1CCC2(CC1)NC(=O)CC2C(=O)O)NCc1ccccn1 (stereo not drawn)	i
CCOCCCNC(=O)c1c(C)noc1-c1ccc(OC(F)(F)F)cc1	-2%
CC[C@H]1OC(=O)[C@H](C)[C@@H](OC2C[C@@](C)(OC)[C@@H](O)[C@H](C)O2)[C@H](C)[C@@H](OC2O[C@H](C)C[C@H](NC)[C@H]2O)[C@](C)(O)C[C@@H](C)CN(C)[C@H](C)[C@@H](O)[C@]1(C)O (stereo partly drawn)	0%
Cc1ccc(C)c(CN2C(=O)c3ccccc3S(=O)(=O)c3ccc(C(=O)N4CCN(c5ccccn5)CC4)cc32)c1	?
CC(=O)O[C@@](C)(C(=O)/C=C/C(C)(C)O)[C@H]1[C@H](O)C[C@@]2(C)[C@@H]3CC=C4[C@@H](C=C(O)C(=O)C4(C)C)[C@]3(C)C(=O)C[C@]12C	-1%[10 µM]
Cn1nnnc1Sc1ncnc2scc(-c3ccccc3F)c12	?
COCc1nc(CCNS(=O)(=O)c2cccc(OC)c2)no1	3%

Structural class, the compounds so far with a CF3 group
SMILES	nsP2pro primary
Cn1cc(CN2CC3(COCC(=O)N(Cc4cccc(OC(F)(F)F)c4)C3)C2)cn1	3%[39.2 µM]
O=C(NCc1ccc(S(=O)(=O)c2cccc(C(F)(F)F)c2)cc1)c1cnc2[nH]ncc2c1	1%
CCOCCCNC(=O)c1c(C)noc1-c1ccc(OC(F)(F)F)cc1	-2%

New compounds follow
SMILES	nsP2pro primary
COCCC1(CO)CCCN(C(=O)CCc2c(C)noc2C)C1 (stereo not drawn)	-7%
CC(C)(C)OC(=O)N1CCC(c2c(C(=O)NCCN3CCOCC3)cnn2-c2cccc(F)c2)CC1	-1%
COc1ccc(F)cc1-c1nc2ccc(-c3ccc(OC)c(OC)c3OC)cc2o1	0%
COc1ccc(Cn2ncc3c4sc(C)cc4n(C)c3c2=O)cc1F	-5%
CCc1cccc(NC(=O)Cn2c(=O)n(CCC(=O)NCC3CCCO3)c(=O)c3cc(OC)c(OC)cc32)c1 (stereo not drawn)	-11%
COc1cccc(C2CC(=O)Nc3c2c(=O)n(C)c2ncnn32)c1OC (stereo not drawn)	-7%
COc1cc2ncnc(Nc3ccc(O)cc3)c2cc1OC	-16%
CC(C)(C)NC(=O)[C@@H]1CN(Cc2cccnc2)CCN1C[C@@H](O)C[C@@H](Cc1ccccc1)C(=O)N[C@H]1c2ccccc2C[C@H]1O	?
COc1ccc(CCNC(=O)c2ccc(CNS(=O)(=O)c3ccccc3)cc2)cc1OC	0%
C[C@H]1O[C@H](O[C@H]2[C@H](O)[C@@H](O)[C@@H](O[C@H]3[C@H](O)[C@@H](O)[C@H](O)O[C@@H]3CO)O[C@@H]2CO)[C@H](O)[C@@H](O)[C@@H]1N[C@H]1C=C(CO)[C@@H](O)[C@H](O)[C@H]1O	8%
CN1CCN(c2nc3c(c(=O)[nH]2)CCN(Cc2cn[nH]c2-c2ccc(F)cc2)CC3)CC1	i
Cn1nccc1-c1ccccc1Oc1ccc(S(=O)(=O)Nc2nccs2)cc1C#N	26%
O=C(c1cccs1)N(Cc1cccnc1)c1nc2c(Cl)cccc2s1	-5%
O=C(c1ccc(Cl)nc1)N1CCC2(CC1)CCN(Cc1cccs1)c1ccccc1O2	-2%
Cc1cc(C)c2c(=O)c3c(oc2c1)C(=O)N(Cc1ccco1)C3c1ccc(F)cc1 (stereo not drawn)	-20%
COC(=O)CC[C@@H](C)C1CCC2C3CCC4C[C@H](OC(C)=O)CCC4(C)C3C[C@H](O)C21C (stereo partly drawn)	6%
CC(=O)c1ccc2c(c1)C(O)C(C(C)(C)O)O2 (stereo not drawn)	?
CN(C)CC/C=C1\c2ccccc2Sc2ccc(Cl)cc21	10%
Cc1ccc(S(=O)(=O)NCC(=O)Nc2nc(-c3ccccc3)cs2)cc1	0%
O=C(CSc1nnc2[nH]c(=O)cc(-c3ccccc3)n12)Nc1ccccc1C(F)(F)F	-15%
CCS(=O)(=O)N1CCC(N2C(=O)C(OCC3CC3)C23CCCCC3)CC1 (stereo not drawn)	i
O=C(O)CSc1nnc(Br)n1-c1ccc(C2CC2)c2ccccc12	1%
C[C@@H](NC(=O)c1cc(C(=O)N[C@@H](Cc2ccccc2)[C@H](O)CNC2CC2)cc(N(C)S(C)(=O)=O)c1)c1ccccc1	9%
NC(=O)c1ccc(NC(=O)Cn2nc3c(cc2=O)CCCCC3)cc1	0%
CCC(CNc1nc(CCN)nc2ccccc12)N1CCN(C)CC1 (stereo not drawn)	i
CCS(=O)(=O)c1ncc(N(Cc2ccc(F)cc2)Cc2ccco2)c(C(=O)Nc2cc(C)ccc2C)n1	-20%
COc1ccc(O)c(-c2nc3ccccc3c(=O)n2Cc2ccccc2)c1	?
Cc1nn(CCC#N)c(C)c1[C@@H]1C=C[C@@H](NC(=O)NCc2ccccc2)C1	?
Cc1ccc(CNC(=O)c2ccc(N3CCCC3)c(NC(=O)Nc3ccc(F)c(Cl)c3)c2)cc1	-20%
c1cc2c(cc1OC1CNC1)OCO2	-15%[39.2 µM]
COc1ccc(CCNC(=O)CCc2cn(Cc3ccccc3Cl)c3ccccc23)c(OC)c1	-9%
O=C1c2c(-c3nc(-c4ccsc4)no3)nnn2CCN1Cc1cccc(Cl)c1	-5%
NC(=O)c1ccc(C(F)(F)F)nc1N1CCC(N2CCCC(O)C2)CC1 (stereo not drawn)	-12%
O=C(Nc1ccc(-n2nc(C(F)(F)F)cc2C(F)(F)F)cc1)c1ccncc1F	-10%
O=C(Cn1ccc2ccccc2c1=O)NCCC(=O)Nc1ccc(F)cc1F	-24%
CCC(=O)Nc1nnc(S(=O)(=O)N2CCCCCC2)s1	-6%
OCC1CN(c2ncccn2)CC12CCN(Cc1ccsc1)CC2 (stereo not drawn)	i
COc1cc(C)c(Cl)cc1S(=O)(=O)NCCc1c(C)[nH]c2ccccc12	-9%
COc1ccccc1CNC(=O)c1ccc2c(c1)CCN2S(=O)(=O)c1ccc(Cl)cc1	-20%
COc1ccc(NC(=O)c2cnc(SCC(=O)Nc3nc4ccc(C)cc4s3)n(C)c2=O)cc1	-8%
CCOC(=O)C1CCCN(C(=O)Cn2nc(CC)n3c(cc4occc43)c2=O)C1 (stereo not drawn)	-24%
Cc1ccc(NS(=O)(=O)c2cc3c(cc2N2CCC2)NC(=O)CC3)cc1C	i
Cc1ccc(CN(C)c2ncnc3ccc(-c4ccc(C(=O)O)o4)cc23)o1	1%
CN(C)CC(=O)O	-6%
COc1ccc(CC(=O)NC2CCN(C(=O)c3ccc(-c4cccs4)cc3)CC2)cc1	4%
CC1(CNCc2ccccc2)COc2ccc(C(=O)NCc3cccs3)cc2N1 (stereo not drawn)	i
COc1cc(C(=O)OC[C@H]2O[C@@H](Oc3ccccc3/C=C/C(=O)O)[C@H](O)[C@@H](O)[C@@H]2O)cc(OC)c1OC	30%[10 µM]
CCOc1ccccc1C(=O)Nc1cc2c(cc1C)n(C)c(=O)c(=O)n2C	-11%
CCOC(=O)c1ccnc(CNCC(=O)N(CC)CCN(C)C)c1	128%[activator]
CN(C)CCNC(=O)c1ccc(Cn2c(SCc3ccc(F)cc3)nc3cccnc32)cc1	21%
CC(=O)OCC1=C(C(=O)O)N2C(=O)[C@@H](NC(=O)CC#N)[C@H]2SC1	-11%
CCOc1ccc(NC(=O)c2c(NC(=O)Cc3ccccc3)sc3c2CCCC3)cc1	-13%
CC(=O)OCC(=O)[C@@]1(O)CCC2C3CCC4=CC(=O)CC[C@]4(C)C3[C@@H](O)C[C@@]21C (stereo partly drawn)	-4%
Cc1ccc(S(=O)(=O)Nc2cc(Cl)cc(C(=O)Nc3nc(-c4ccccc4)cs3)c2)cc1	?

In the list so far, these contain a furan ring, fused or not:
SMILES	nsP2pro primary
COCCn1nc2n(c1=O)CCN(Cc1ccc(Br)o1)CC2	-17%
c1coc(-c2nc3ccccn3c2Nc2ccc3c(c2)OCCO3)c1	-33%
COCCn1cnnc1CCNC(=O)c1oc2cc(OC)ccc2c1C	3%
Cc1cc(C)c2c(=O)c3c(oc2c1)C(=O)N(Cc1ccco1)C3c1ccc(F)cc1 (stereo not drawn)	-20%
CCS(=O)(=O)c1ncc(N(Cc2ccc(F)cc2)Cc2ccco2)c(C(=O)Nc2cc(C)ccc2C)n1	-20%
CCOC(=O)C1CCCN(C(=O)Cn2nc(CC)n3c(cc4occc43)c2=O)C1 (stereo not drawn)	-24%
Cc1ccc(CN(C)c2ncnc3ccc(-c4ccc(C(=O)O)o4)cc23)o1	1%
